Screening data from PubChem BioAssay.
YopH inh = YopH tyrosine phosphatase inhibitors, primary screen, biochemical, fluorescence Ex485/Em525; YopH tyrosine phosphatase [Yersinia enterocolitica]; 0.16% of 140,000 active; AID 898, 2007; inhibition, %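 (about 10 µM by stock and volumes)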;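 active = inhibition of 50% or more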;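 note: controls were vehicle for no effect and minimum signal wells for full effect; inactives centre near -20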
Mtb growth = M. tuberculosis H37Rv growth inhibitors, H37Rv strain (AID 1626). M. tuberculosis H37Rv growth inhibition; higher % means a stronger effect. inhibition, % at 10 µM, or IC50 in µM where a hit was titrated. 0.95% of 220,000 active;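 active = confirmed in a dose series; inconclusive = inhibition above 80% but not taken into the dose series; inactive = below 80% or under 30% at every dose of the series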;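 note: bacteria incubated seven days before Alamar blue readout; 0% = bacteria only wells and 100% = bacteria with antibiotic wells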
Arbovirus anti = antivirals against arbovirus infection, primary screen, cell-based, full library, 10K replicate subset. arbovirus infection cell-based antiviral screen. inhibition, % at 10 µM. AID 1251, 2008. 0.37% of 200,000 active;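 active = inhibition from about 30%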;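 note: bluetongue infection of BSR cells; cell survival read as ATP light after 72 h; 0% = infected wells without compound and 100% = uninfected wells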
RecA intein inh = Mtb RecA intein splicing inhibitors, primary screen, biochemical, fluorescence, HTS; 0.75% of 290,000 active; cell-free RecA intein splicing; inhibition, %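 (about 9 µM by stock and volumes)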; AID 2221, 2009; Protein RecA (Mycobacterium tuberculosis (strain ATCC 25618 / H37Rv)), P9WHJ3; in the data active = inhibition above about 30%; inconclusive = no clear call, values can overlap the other calls;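 note: 0% = vehicle wells and 100% = reference inhibitor control wells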
Target sequence (P9WHJ3 whole entry, looked up): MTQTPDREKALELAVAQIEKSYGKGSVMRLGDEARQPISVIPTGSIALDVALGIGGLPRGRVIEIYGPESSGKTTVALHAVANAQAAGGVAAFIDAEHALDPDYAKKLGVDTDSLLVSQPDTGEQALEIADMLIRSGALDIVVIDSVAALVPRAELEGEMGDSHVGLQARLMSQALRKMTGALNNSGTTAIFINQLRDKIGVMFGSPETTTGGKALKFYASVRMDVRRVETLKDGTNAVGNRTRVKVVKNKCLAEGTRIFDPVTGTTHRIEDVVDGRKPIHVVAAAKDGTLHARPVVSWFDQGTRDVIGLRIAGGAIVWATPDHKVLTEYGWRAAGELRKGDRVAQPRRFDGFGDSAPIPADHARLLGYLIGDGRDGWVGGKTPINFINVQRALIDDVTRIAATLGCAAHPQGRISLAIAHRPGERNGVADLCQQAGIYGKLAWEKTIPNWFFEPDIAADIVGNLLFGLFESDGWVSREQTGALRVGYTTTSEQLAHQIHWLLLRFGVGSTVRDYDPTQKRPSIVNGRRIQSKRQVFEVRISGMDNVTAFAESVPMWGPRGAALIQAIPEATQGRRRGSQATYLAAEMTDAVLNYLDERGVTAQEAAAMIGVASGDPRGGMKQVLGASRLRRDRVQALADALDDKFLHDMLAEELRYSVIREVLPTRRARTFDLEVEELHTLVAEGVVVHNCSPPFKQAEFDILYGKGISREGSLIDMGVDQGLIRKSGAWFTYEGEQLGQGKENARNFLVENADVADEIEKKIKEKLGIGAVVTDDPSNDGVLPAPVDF
Mtb bLac sens = beta-lactam sensitization of Mtb H37Rv, H37Rv; M. tuberculosis H37Rv growth with meropenem, percent inhibition; hits of this screen are not shown here; inhibition, % at 25 µM; 0.27% of 330,000 active; AID 434955, 2010;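 active = about 74% or more and at least 40 points above the plate without the antibiotic, then above 30% in a dose series; inconclusive = first-round hits that could not be retested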;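 note: growth measured after seven days incubation then overnight dye step; 0% = bacteria only wells and 100% = bacteria with antibiotic; twin plates without the antibiotic show which effects depend on it; some results filed as inactive read as strong as hits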
Arbovirus anti repeat = second read-out of Arbovirus anti, no call of its own (marks repeat the call); inhibition, %; measured here: 10K subset replicate screen; many hits read low in the repeat;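 first of two repeat runs on a subset; 0% = infected and 100% = uninfected wells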
The depositor's hits bear a star; ? = inconclusive; . = no result given. Some of the compounds tested (hit frequency here may not be typical).

Start of the listing, in advance, two compounds:
SMILES	YopH inh	Mtb growth	Arbovirus anti	RecA intein inh	Mtb bLac sens	others
CC(C)NC(=O)CSc1nc(Cc2cccs2)nc2ccccc12	-24	-12%	4	4.0	2
Cc1ccc([N+](=O)[O-])cc1NC(=O)c1ccc(CSc2ccccc2)cc1	-5	-4%	-12	0.8	2

The listing (from the top)
SMILES	YopH inh	Mtb growth	Arbovirus anti	RecA intein inh	Mtb bLac sens	others
CC(C)NC(=O)CSc1nc(Cc2cccs2)nc2ccccc12	-24	-12%	4	4.0	2
Cc1ccc([N+](=O)[O-])cc1NC(=O)c1ccc(CSc2ccccc2)cc1	-5	-4%	-12	0.8	2
CCn1c2ccccc2c2cc(NC(=O)CSc3nnc(C4CC4)n3Cc3ccco3)ccc21	12	6%	-24	12	4
COc1cc(C(CC(=O)Nc2ncccc2C)N2Cc3ccccc3C2=O)cc(OC)c1OC (centres undefined)	.	.	.	-1.3	-5
Nc1cc(S(=O)(=O)Nc2ccccc2Cl)ccc1N1CCOCC1	.	-12%	13	-4.1	1
Nc1nonc1C(=O)NC(c1ccccc1)c1ccccc1	-12	2%	-4	2.3	13
COc1ccc(-c2nnc3ccc(SCC(=O)N4CCOCC4)nn23)cc1	.	0%	-4	-1.7	-5
COc1cc2cc(CN(CCCO)S(=O)(=O)c3ccccc3)c(=O)[nH]c2cc1OC	2	-5%	5	1.8	-4
COc1cc(O)ccc1C=O	.	-13%	.	-1.4	-9
COc1ccccc1/C=C/C(=O)NCC(=O)N/N=C/c1ccccc1[N+](=O)[O-]	.	-2%	-3	1.0	7
COCCn1c(SCc2cccc(F)c2)nc2cc(C(=O)OC)ccc2c1=O	.	.	.	1.3	4
Cc1nnc2sc(SCC(=O)N3CCCCC3)nn2c1=O	.	.	.	-1.3	-12
NC1=NN=C(N2N=C(c3ccc(Br)cc3)CC2(O)C(F)(F)F)n2ncnc2C1 (centres undefined)	.	-6%	-4	-2.1	6
COc1ccc(C(=O)CC2(C(=O)O)CCCCC2)cc1	.	.	.	0.9	2
COc1ccc(NS(=O)(=O)c2ccc(NC(=O)Cc3cccs3)cc2)cc1	-35	2%	-4	11	-3
O=C(Nc1ccncc1)C1COc2ccccc2O1 (centres undefined)	-32	0%	-5	-1.5	-8
COc1ccc(OC)c(NC(=O)c2ccc(N3C(=O)C4CC=C(C)CC4C3=O)cc2)c1 (centres undefined)	.	.	.	3.3	4
CC(C)c1nc(SCC(=O)N2CCCC2)c2ccccc2n1	-32	-10%	0	1.9	-8
CCn1c(=O)cc(OCC(=O)NCCc2ccc(OC)c(OC)c2)c2ccccc21	.	6%	-2	-2.2	4
O=C(CN(c1ccccc1)S(=O)(=O)c1ccc(Cl)cc1)Nc1ccccc1C(=O)N1CCCC1	-14	3%	-17	4.8	-6
O=S1(=O)N=C(N2CCN(Cc3ccccc3)CC2)c2ccccc21	-43	3%	-1	-0.8	-5
CSCCC1NC(=S)N(Cc2ccccc2)C1=O (centres undefined)	.	.	.	1.2	-2
OC(c1nc2ccc(F)cc2[nH]1)C(O)c1nc2ccc(F)cc2[nH]1 (centres undefined)	.	.	.	-1.0	-1
COc1cc(OC)cc(C(=O)NNC(=S)NCc2ccco2)c1	.	-2%	3	0.0	8
COc1cccc(CNC(=O)c2nnn(CC(=O)Nc3ccc(Br)cc3)c2N)c1	.	.	.	-1.4	7
CCOC(=O)CSC1=C(C#N)C(=O)NC(c2ccc(OC)cc2)S1 (centres undefined)	-14	-8%	-9	2.0	0
Cc1ccc(C)c(C(=O)NC(C)CCc2ccccc2)c1 (centres undefined)	.	9%	-4	-1.3	-3
COc1ccc(Nc2nc(N)nc(CN3CCC(Cc4ccccc4)CC3)n2)cc1	-9	?	-12	-3.8	34	Arbovirus anti repeat=-15
CN(C)S(=O)(=O)c1cccc(NC(=O)COc2cccc(C#N)c2)c1	-21	-3%	1	-2.0	-7
COc1cc(NC(=O)Cn2cnc(S(=O)(=O)N3CCC(C)CC3)c2)cc(OC)c1OC	.	.	.	-0.1	2

Sorted by molar mass (rising): three of the compounds above
SMILES	YopH inh	Mtb growth	Arbovirus anti	RecA intein inh	Mtb bLac sens	others
CC(C)c1nc(SCC(=O)N2CCCC2)c2ccccc2n1	-32	-10%	0	1.9	-8
CCn1c(=O)cc(OCC(=O)NCCc2ccc(OC)c(OC)c2)c2ccccc21	.	6%	-2	-2.2	4
COc1cccc(CNC(=O)c2nnn(CC(=O)Nc3ccc(Br)cc3)c2N)c1	.	.	.	-1.4	7

(continued)
SMILES	YopH inh	Mtb growth	Arbovirus anti	RecA intein inh	Mtb bLac sens	others
CN1CCN(c2ccc(S(=O)(=O)N3CCCCC3)cc2NC(=O)COc2cccc(Cl)c2)CC1	.	.	.	2.5	54
CC1CCCC(C)N1C(=O)COC(=O)CSc1ccc(C(N)=O)cc1[N+](=O)[O-] (centres undefined)	.	.	.	0.6	2
CCc1nn(C(C)C(=O)NCCN2CCN(c3cccc(C)c3C)CC2)c(=O)c2cc3occc3n12 (centres undefined)	-19	-3%	-36	0.9	-13
O=C1Nc2ccccc2N(O)N1c1cc(-c2ccc(Cl)cc2)[nH]n1	.	1%	5	.	-3
O=C(CNC(=O)C1CCCCC1)Nc1ccc(Cl)cc1	-34	-9%	-5	-0.9	0
COc1ccc(N2CCN(CCCNC(=O)Nc3ccccc3)CC2)cc1	-21	-11%	15	1.8	8
CC(=O)N1N=C(c2cccc(Cl)c2)OC1c1cccc([N+](=O)[O-])c1 (centres undefined)	10	1%	12	10	8
CCCCSc1nnc(-c2ccc(OC)cc2)n1C	-16	-1%	-6	4.3	1
Cc1cc(/C=C(\C#N)C(=O)NCc2cccs2)c(C)n1-c1ccccc1F	-4	7%	-1	3.4	-4
Cc1ccc(C2(C)NC(=O)N(CC(=O)Nc3nc(-c4ccccn4)cs3)C2=O)cc1 (centres undefined)	.	.	.	-1.7	90
CC(=O)c1ccc(NC(=O)NC2CC(=O)N(c3ccc4c(c3)OCCO4)C2)cc1 (centres undefined)	.	.	.	-3.9	1
NC(=O)c1ccc(/C=N/O)[n+](Cc2ccccc2)c1	.	.	.	0.7	-6
N#Cc1ccccc1Sc1ccccc1C(=O)OCC(N)=O	.	1%	7	1.1	0
CCOC(=O)N1CCN(c2ncnc3c2cnn3-c2ccc(OC)cc2)CC1	-33	.	.	-0.3	.
CC1CN(S(=O)(=O)c2cccc(C(=O)NCc3ccc4c(c3)OCO4)c2)CC(C)O1 (centres undefined)	-53	7%	-1	-0.3	-7
CCC1CCc2[nH]nc(C(=O)O)c2C1 (centres undefined)	-48	6%	8	16	11
CC(C)CC(=O)N1CCN(Cc2ccc3ccccc3c2)CC1	.	.	.	-0.8	-9
CCOC(=O)NC1(Nc2cccc(Cl)c2)Oc2ccccc2O1	-22	22%	-8	.	11
Cc1cccc(C)c1NC(=O)CNC(=O)c1c(C)nn(C)c1Cl	.	2%	12	-0.1	3
O=C(CNC(=O)c1ccncc1)Nc1ccc(F)c(F)c1	.	.	.	1.9	1
CCCCN(CC)CCNC(=O)CN1C(=O)COc2ccc(S(=O)(=O)N3CCCC3)cc21	-23	1%	9	0.1	9
CCOC(=O)CCCCC(=O)c1[nH]c(=O)[nH]c1C[n+]1ccccc1	.	-7%	1	2.9	-2
CN(O)/C=C/C(=O)c1ccc(Br)cc1	.	8%	11	10	2
Cc1cccc(CCNC(=O)CNS(=O)(=O)c2ccc3nc(C)sc3c2)c1	.	.	.	-4.5	-4
CCOc1ccc(OCC(=O)Nc2ccccc2C(F)(F)F)cc1	.	6%	-6	-0.5	13
COc1cccc(CNC(=O)c2cccc(NC(=O)C3=C(C)OCCS3)c2)c1	.	.	.	0.8	-4
COc1ccc(/C=N/NC(=O)C(Cc2c[nH]c3ccccc23)NC(=O)OCC(C)C)cc1[N+](=O)[O-] (centres undefined)	-29	.	4	1.1	?
Clc1ccc(-c2cn3ccccc3n2)cc1	.	.	.	-2.9	-2
CCOc1ccc(CCNC(=O)c2nn(C)c3c2CS(=O)(=O)c2ccccc2-3)cc1OCC	.	.	.	3.7	4
CC1CCCN(C(=O)c2nn(C)c3c2CS(=O)(=O)c2ccccc2-3)C1 (centres undefined)	.	.	.	0.5	0

No new results follow: an excerpt of the list.
SMILES	YopH inh	Mtb growth	Arbovirus anti	RecA intein inh	Mtb bLac sens	others
CCC1CCc2[nH]nc(C(=O)O)c2C1 (centres undefined)	-48	6%	8	16	11
CC(C)CC(=O)N1CCN(Cc2ccc3ccccc3c2)CC1	.	.	.	-0.8	-9
CCOC(=O)NC1(Nc2cccc(Cl)c2)Oc2ccccc2O1	-22	22%	-8	.	11
Cc1cccc(C)c1NC(=O)CNC(=O)c1c(C)nn(C)c1Cl	.	2%	12	-0.1	3
O=C(CNC(=O)c1ccncc1)Nc1ccc(F)c(F)c1	.	.	.	1.9	1

Following part:
SMILES	YopH inh	Mtb growth	Arbovirus anti	RecA intein inh	Mtb bLac sens	others
Cc1occc1-c1nnc(SCC(=O)N2CCOCC2)o1	1	-12%	-3	0.7	7
CCOC(=O)N1CCN(C(=S)NC(=O)C23CC4CC(CC(C4)C2)C3)CC1	.	4%	19	-0.6	2
COc1cccc(C2CC(c3ccc(C(C)C)cc3)n3nc(N)nc3N2)c1 (centres undefined)	-41	-3%	5	2.4	4	Arbovirus anti repeat=1
CCCC[C@@H](CNC)NC[C@H](Cc1ccc(O)cc1)NCCc1ccc(OCC)cc1	.	.	.	-1.2	8
CNC(=O)c1[nH]cnc1C(=O)Nc1ccc(OC)cc1	.	5%	.	-2.9	4
CCOC(=O)C1=C(C)N=C(SC)N(C)C1c1ccccc1 (centres undefined)	21	10%	4	7.7	-19
NC(=O)CC1C(=O)N(c2ccccc2)C(=S)N1NC(=O)c1ccc(Br)cc1 (centres undefined)	.	.	.	1.9	-5
O=c1c(-c2ccc(O)cc2)coc2cc(O)cc(O)c12	.	10%	.	-0.2	-6
Nc1nc(NCCO)nc(NCc2ccccc2)c1[N+](=O)[O-]	.	.	.	-1.1	4
CCOc1ccc(C2CC(=O)c3c([nH]c(C(=O)OC)c3C)C2)cc1OC (centres undefined)	-4	-3%	3	0.5	5
O=c1oc2c(-c3ccc([N+](=O)[O-])cc3)cc(O)cc2s1	.	-6%	.	1.7	4
Cc1cc(SCC(=O)NC(=O)NCc2ccco2)nc2ccccc12	-9	2%	2	1.0	-9
Oc1c(CN2CCCCC2)cc(Br)c2cccnc12	-48	-4%	-35	0.1	14
Cc1cc(NC(=O)CSc2cn(CCNC(=O)c3ccc(Cl)cc3)c3ccccc23)no1	-23	8%	6	0.6	-4	Arbovirus anti repeat=6
COc1ccccc1C(=O)Nc1ccc(S(=O)(=O)N2CCCCC2c2cccnc2)cc1 (centres undefined)	.	6%	.	-1.7	7
c1ccc2cc(OCCCn3ccnc3)ccc2c1	.	.	.	2.1	0
COC(=O)CN1C(=O)[C@H]2[C@@H](/C=C/c3ccccc3)N3C(=O)CN(Cc4ccccc4)C(=O)[C@@]3(C)[C@H]2C1=O	.	.	.	-0.3	-10
Cc1cc(C(F)F)n2ncc(C(=O)NC3CCCCCC3)c2n1	-1	12%	-7	2.6	63
Cc1nn(-c2ccccc2)c(C)c1C(=O)NCCc1ccc(Cl)cc1	.	.	.	0.6	-2
CCN(CC)CC(=O)Nc1ccc2c(c1)N(C(=O)CN(CC)CC)c1ccccc1CC2	3	4%	-3	7.7	-5
COc1ccc(C2/C(=C(\O)c3ccc4c(c3)OCCO4)C(=O)C(=O)N2Cc2cccnc2)cc1 (centres undefined)	.	.	.	-3.9	-5
c1ccc2c(c1)[nH]c1c(N3CCN(C4CCCCC4)CC3)ncnc12	-22	4%	3	0.6	6
CN(C(=O)/C=C/c1ccc(F)cc1)C1CCCCC1	.	.	.	-5.6	5
CC(O)CN=c1cc(-c2ccccc2)oc2ccc(Cl)cc12 (centres undefined)	-12	2%	-17	3.3	69
CC(C)c1ccc(NC2CCCN(C(=O)c3ccnn3C)C2)cc1 (centres undefined)	.	.	.	-1.8	-3
COCCCNC(=S)Nc1ccccc1[N+](=O)[O-]	.	2%	0	-1.2	-3
COc1ccc(OC(C)C(=O)NC(C)c2ccccc2)cc1 (centres undefined)	.	.	.	-0.5	-1
CC(C)CC(C(=O)N1CCOCC1)N1Cc2ccccc2C1=O (centres undefined)	.	-7%	2	-1.7	-2
CN(C)c1cccc(C(=O)OCC(=O)Nc2ccccc2Sc2ccccc2)c1	-23	-10%	-5	4.8	9
O=C(Nc1ccc(NS(=O)(=O)c2ccccc2)cc1)c1ccc(Cl)cc1	.	.	.	-2.4	3
COc1cc(C(C(=O)NC2CCCC2)N(C(=O)c2snc(C(N)=O)c2N)C2CCCC2)cc(OC)c1OC (centres undefined)	.	.	.	-0.1	5
